# Source: PubChem BioAssay
# miR-21 FLuc: qHTS Assay for Modulators of miRNAs and/orActivators of miR-21. 340,000 tested, under 10 active. Potency, µM (top dose mostly 38.3 µM), for the others: top-dose reporter change, positive = more light. HeLa miR-21 FLuc reporter, luciferase, 48 h; active = well fitted rising curve with a large enough effect; inconclusive = small, poorly fitted or top-dose-only effect; inactive = no such curve, though single readings can be large or run the other way;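 further: % of control where 0% means no effect; miR-21 action dims this reporter so a rising signal means less miR-21 action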
#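 HeLa cells stably expressing CMV-driven firefly luciferase with a downstream miR-21 binding sequence, endogenously expressing miR-21, were treated with titrations (up to about 40uM final) for 48 hours at 37 degree Celsius. Luciferase luminescence was read after lysis.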
# GLA inh pH 4.5: qHTS Assay for Inhibitors of Human alpha-Galactosidase at pH 4.5; purified enzyme, 4-MU-alpha-Gal fluorescence, pH 4.5; AID 1467, 2008; 230,000 tested, under 10 active; activity change, negative = inhibition, % at 105 µM; Alpha-galactosidase A (Homo sapiens), P06280; inconclusive = small, poorly fitted or top-dose-only inhibition, or a rising curve; inactive = flat fitted curve, though single readings scatter; no compound was filed as active;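 further: 0% = full activity with enzyme and -100% = basal without enzyme; dose as in the result columns while the protocol names 77 µM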
# Target sequence (P06280 whole entry, looked up): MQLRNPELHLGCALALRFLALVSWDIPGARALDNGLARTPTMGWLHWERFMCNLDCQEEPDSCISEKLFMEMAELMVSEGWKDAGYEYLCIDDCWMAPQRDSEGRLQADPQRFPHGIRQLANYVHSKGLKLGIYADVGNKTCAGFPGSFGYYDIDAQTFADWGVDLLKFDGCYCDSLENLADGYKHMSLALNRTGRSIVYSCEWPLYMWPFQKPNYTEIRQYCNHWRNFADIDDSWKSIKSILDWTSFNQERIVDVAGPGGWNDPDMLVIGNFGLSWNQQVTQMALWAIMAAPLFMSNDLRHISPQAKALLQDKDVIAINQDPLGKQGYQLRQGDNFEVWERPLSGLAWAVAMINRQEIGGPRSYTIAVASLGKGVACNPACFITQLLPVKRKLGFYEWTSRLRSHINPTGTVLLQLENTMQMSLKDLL
# Rango complex inh: qHTS Assay for Inhibitors of Rango (Ran-regulated importin-beta cargo) - Importin beta complex formation; Rango CFP/YFP FRET sensor + importin beta, 45 min; Potency, µM (doses to about 92.2 µM), for the others: at the top dose inhibition of complex formation; hit rate 0.031% among 340,000; active = rising FRET ratio curve, often small or poorly fitted; inconclusive = mostly compound fluorescence or quenching in the first reads; inactive = flat curves in all reads;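 further: potency means the concentration at half of the fitted maximal effect; 0% = DMSO wells and 100% = buffer wells lacking importin beta; nearly all actives have a fitted effect of over 15% in size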
#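 FRET biosensor Rango (snurportin 1 IBB between N-terminal EYFP and C-terminal Cerulean), 50 nM in PBS/1 mM DTT/0.02% Tween-20/0.1% BSA, preincubated 5 min RT with compound; 0.125 microM importin beta added, 45 min RT, CFP/YFP FRET ratio read.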
# Rango release inh: qHTS Assay for Inhibitors of RanGTP induced Rango (Ran-regulated importin-beta cargo) - Importin beta complex dissociation; Potency, µM (series often up to 46.1 µM), without a hit: top-dose activity change, negative = inhibition; Biochemical FRET Rango-importin beta, RanGTP-induced dissociation; AID 540253, 2011; hit rate 0.071% among 340,000; active means falling FRET ratio curve, often poorly fitted, with flat reads before Ran was added; inconclusive means other falling curves, or compound fluorescence or quenching; inactive means flat or rising ratio curve;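 further: potency means the concentration at half of the fitted maximal effect; % of control where 0% means no effect; nearly all actives have a fitted effect of over 45% in size; -100% = wells without RanGTP and RCC1; the record marks most hits as doubtful in a second field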
#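 Rango (0.1 uM)–importin beta (0.25 uM) complex; RanGTP-RCC1 trigger; 45 min RT; CFP/YFP FRET read.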
# The depositor's hits bear a star; ? = inconclusive; · = not tested or not shown; & = joins results of further samples; [ ] = dose if it differs, or a comment. Only part of the results is shown; count on the stated rates, not on these rows.
SMILES,miR-21 FLuc,GLA inh pH 4.5,Rango complex inh,Rango release inh
CC(C)(C)c1csc(N/N=C/c2cccnc2)n1,-40.0%,1.8,0.7%,-13.5%
Cc1ccc2cc(C#N)c(N3CCN(C(=O)c4ccccc4)CC3)nc2c1,0.5%,·,?,?
CSCCC(NC(=O)c1ccco1)C(=O)NC1CCC(C)CC1 (stereo unspecified),·,·,-2.3%,1.6%
C1CCN(c2nc(N3CCCC3)nc(N3CCNCC3)n2)C1,-1.4%,2.5,·,·
CC(=O)c1cc(CN2C(=O)c3ccccc3C2=O)cs1,-0.4%,4.9,-0.1%,10.2%
O=C(NNC(=O)c1ccccc1Br)c1ccc(SCC2CCCO2)c([N+](=O)[O-])c1 (stereo unspecified),-0.3%,0.8,2.1%,-13.2%
COc1ccc(-n2c(CNc3ccc(C)cc3)nnc2SCc2ccccc2)cc1,-7.0%,-1.0,-0.2%,1.8%
c1cnn(-c2cc(N3CCOCC3)ncn2)c1,-7.2%,2.3,-5.6%,5.9%
COC1=CC(=O)C=C(OC)C1=O,·,-4.5,-6.3%,-2.5%
CNc1nc(N/N=C/c2ccc([N+](=O)[O-])cc2)nc(Nc2ccccc2)n1,18.5%,-20.6,2.3%,2.0%
CCCCOc1ccc(C(=O)N(Cc2ccco2)C2CCS(=O)(=O)C2)cc1 (stereo unspecified),-0.1%,·,3.5%,29.9%
O=C1C2CCCN2C(=S)N1c1cc(Cl)ccc1Cl (stereo unspecified),·,·,0.4%,-4.9%
COc1ccccc1NC(=S)NCc1ccccc1,0.1%,·,-0.8%,-18.1%
CC(=O)N1c2ccc(S(=O)(=O)NCCC(=O)Nc3cccc(Cl)c3)cc2CC1C (stereo unspecified),4.2%,·,3.3%,-10.2%
COc1cccc(S(=O)(=O)NCc2ccc(C(=O)Nc3ccc(Cl)c(Cl)c3)cc2)c1,4.6%,7.0,2.4%,-8.8%
COc1ccc(CNC(=O)C2CCN(S(=O)(=O)c3ccc4c(c3)C(C)(C)C(=O)N4C)CC2)cc1,6.5%,·,1.7%,-4.8%
CN(C)/C=C/C(=O)/C=C/c1cn(-c2ncc(C(F)(F)F)cc2Cl)c2ccccc12,3.1%,-4.9,?,?
Clc1cncc(Cl)c1N/N=C/c1ccncc1,19.3%,-5.5,-2.1%,-1.7%
C=CC1CN(CC(=O)OC)S(=O)(=O)c2ccccc21 (stereo unspecified),0.6%,3.5,-5.6%,-24.3%
CC1CN(C(=O)C(C)N2C(=O)c3ccccc3C2=O)CC(C)O1 (stereo unspecified),3.1%,-2.0,0.6%,-9.4%
Cc1cc(Br)ccc1NC(=O)c1sc2ncn(CC(=O)N3CCN(c4ccccn4)CC3)c(=O)c2c1C,2.0%,·,-0.9%,-3.7%
O=c1[nH]nc(Br)c(=O)n1C(c1ccccc1)c1ccccc1,·,·,-0.4%,-8.3%
O=c1[nH]c(CN2CCN(c3ncccn3)CC2)nc2c(Br)cc(Br)cc12,-0.4%,-4.3,-7.7%,-2.0%
COCCNC(=O)Nc1ccc2nc(-c3ccco3)c(-c3ccco3)nc2c1,2.6%,-2.2,?,?
Cc1cc(C)c2c(n1)SCC(=O)N2CC(=O)Nc1ccccc1Cl,-9.6%,·,-5.2%,-12.2%
C/C(=N\NC(=O)CSc1nc2ccccc2[nH]1)c1ccncc1,-18.4%,0.2,-2.1%,-3.8%
CC(=O)/C=C/n1c(=S)oc2ccccc21,?,1.0,1.5%,1.9%
CCO/C(C)=N/n1c2nc3ccccc3nc2c2c(=O)n(C3CCCC3)c(C)nc21,-8.6%,-11.6,?,2.2%
O=S(=O)(c1cc(F)ccc1F)N1CCC2(CC1)OCCN2S(=O)(=O)c1cccs1,·,·,5.1%,15.6%
CCOC(=O)C1=NN(C(=O)Cc2ccccc2)C(O)(C(C)(C)C)C1 (stereo unspecified),0.4%,8.3,6.6%,15.0%
CCn1cc(C(=S)N2CCC(C(N)=O)CC2)c2ccccc21,-1.2%,-20.3,-1.1%,-3.9%
O=C(CN1CCN(S(=O)(=O)c2ccc(Cl)cc2)CC1)Nc1ccc(N2CCOCC2)cc1,-8.2%,-9.3,-4.0%,-1.1%
COc1ccc(OCc2nnc(NC(=O)Nc3ccc(F)cc3)s2)cc1,-0.3%,3.5,-2.3%,0.3%
CCCCCN(C(=O)CCC(=O)OC(C)C(=O)NCc1ccccc1)c1c(N)n(CCCC)c(=O)[nH]c1=O (stereo unspecified),·,·,5.0%,-9.5%
CCOc1cc2c(C#N)c(N3CCOCC3)nc(N)c2c(N)n1,-35.2%,11.3,-0.2%,-24.3%
C/C(CC1CC(COCCC(C)C)OC1=O)=N\NC(N)=S (stereo unspecified),1.8%,5.9,-4.5%,16.8%
Cc1cccc(CC2CC(=O)N(C3CCCCC3)C2=O)c1 (stereo unspecified),-0.9%,-9.5,?,3.0%
O=C(Nc1nc(-c2ccc(-c3ccccc3)cc2)cs1)c1cnccn1,-44.5%,-0.2,-3.8%,-8.5%
C/C(Cn1nnc2ccccc21)=N/OC(=O)c1c(F)cccc1F,-3.3%,-0.9,3.8%,16.3%
O=[N+]([O-])c1ccc(NCCNS(=O)(=O)c2ccccc2)cc1,-2.6%,-5.3,2.1%,27.7%
CC1CCCC(NC(=O)c2cccc(S(=O)(=O)NCc3ccccc3)c2)C1C (stereo unspecified),·,·,-0.7%,38.9%
Cc1ccc(S(=O)(=O)CC(=O)N2CC(C)OC(C)C2)cc1 (stereo unspecified),0.3%,·,0.0%,-4.5%
COc1ccc(S(=O)(=O)Nc2ccc(S(=O)(=O)N3CCCC3)cc2)cc1,0.0%,-9.9,0.3%,36.2%
CC(c1ccccc1)C1OCC(C[N+]2(C)CCCCC2)O1 (stereo unspecified),-2.0%,-0.7,1.8%,7.2%
NC(=O)NC(CC(=O)NCCc1ccc(S(N)(=O)=O)cc1)c1ccc(Cl)cc1 (stereo unspecified),5.5%,6.1,-1.5%,-1.0%
O=[N+]([O-])c1ccccc1-c1cc(-c2ccccc2O)n[nH]1,-60.2%,0.5,-4.1%,-7.0%
C=CCN1C(=O)C(CC(=O)Nc2ccccc2F)S/C1=N\c1nccs1 (stereo unspecified),-2.8%,3.3,0.3%,9.4%
O=c1cc(-c2ccccc2)nc2nc(COc3ccccc3)[nH]n12,0.4%,-3.5,1.2%,9.2%
Cn1c(=O)c(C(=O)NNC(=O)c2ccccc2Cl)c(O)c2ccccc21,-3.6%,·,-0.4%,17.4%
COc1ccc(C(=O)N2CCCC(Nc3ccc(F)c(F)c3)C2)c(OC)n1 (stereo unspecified),-8.5%,·,-0.5%,1.1%
O=C(COC(=O)c1nc(Cl)ccc1Cl)c1ccc[nH]1,·,·,-3.3%,-0.2%
O=C(NCc1ccccc1)c1n[nH]nc1-c1ccccc1O,-41.6%,1.5,1.1%,11.5%
CCCC12CN3CC(C)(CN(C1)C3c1ccc3c(c1)OCO3)C2=O (stereo unspecified),-2.3%,-1.4,2.5%,32.0%
COC(=O)C1=C(C)NC(C)=C(C(=O)OC)C1C(=O)OC1CCCCC1=O (stereo unspecified),-1.1%,6.2,-0.2%&1.4%,-2.7%&-10.3%
O=C(Nc1nnc(S(=O)(=O)N2CCOCC2)s1)c1ccccc1Br,-1.3%,·,-1.2%,-23.9%
COC1=C(Nc2ccccc2)C(=O)c2ccccc2C1=O,-15.7%,8.8,-0.3%,-1.0%
Cc1ccc(-n2c(N)c(C(N)=O)sc2=S)cc1,-12.0%,-16.5,-0.3%,4.4%
CCNc1nc2nc3ccc(C)cn3c(=O)c2cc1C(=O)NCC1CCCO1 (stereo unspecified),-0.7%,?,?,?
CC(=O)c1ccc(Nc2nc(-c3cccnc3)cs2)cc1,-36.7%,·,8.4%,5.6%
CC1CCN(C(=O)CCC(=O)Nc2nnc(C(F)(F)F)s2)CC1,0.7%,·,-3.4%,0.4%
# Remaining list, next part
SMILES,miR-21 FLuc,GLA inh pH 4.5,Rango complex inh,Rango release inh
COc1ccc(C(=O)NCc2nnc(SCC(=O)NCc3ccco3)o2)cc1OC,-1.3%,·,0.2%,0.7%
COc1ccc(CNCCC(c2ccccc2)c2ccc3c(c2)OCO3)cc1 (stereo unspecified),?,-18.0,4.5%,6.7%
Cc1ccc(S(=O)(=O)Nc2cc(C(F)(F)F)ccc2N2CCOCC2)cc1,22.4%,-2.4,0.6%,1.1%
CCOC(=O)CC(=O)CSc1nc(C)cc(C)c1C#N,-1.0%,7.9,?,-9.0%
CCCCOCCCNC(=O)N[C@@H](CC(C)C)C(=O)O,-5.8%,-2.9,4.0%,-3.6%
O=C(OCc1ccccc1)N(CCF)c1cn(Cc2ccccc2)c(=O)n(Cc2ccccc2)c1=O,·,·,1.4%,30.4%
COc1cccc(CN2CCCN(S(=O)(=O)c3ccc(Br)cc3)CC2)c1,-4.2%,-5.3,0.4%,8.5%
O=C(Nc1ccc2nc(-c3ccc(Br)o3)[nH]c2c1)c1cccs1,-12.1%,-2.8,-5.1%,-11.2%
Cn1nnnc1SCC(=O)Nc1nn(-c2ccccc2)nc1C(N)=O,2.5%,2.5,-1.8%,-10.5%
Cc1c(-n2c(SC(C)C(=O)NC(N)=O)nc3ccccc3c2=O)c(=O)n(-c2ccccc2)n1C (stereo unspecified),-0.5%,-0.4,4.2%,-0.2%
CCn1c(CSc2nc3ccccc3s2)nnc1SCC(=O)NCC(=O)OC,0.9%,10.0,1.5%,4.9%
COc1ccc(/C=C/C(=O)OCC(=O)Nc2cccc(C(C)=O)c2)cc1,-6.4%,-0.6,-0.1%,7.3%
CCN(CC)S(=O)(=O)c1ccc(NN)nc1,-4.1%,-2.9,?,-1.7%
CNCc1ccccc1OCc1ccccc1F,-5.8%,-25.2,2.8%,0.1%
CCOC(=O)N1CCC(N2C(=O)c3cc(C(=O)NC4CCCCC4)ccc3C2O)CC1 (stereo unspecified),-12.7%,2.0,-0.5%,19.4%

# Of the compounds above, these have a cyano group.
SMILES,miR-21 FLuc,GLA inh pH 4.5,Rango complex inh,Rango release inh
Cc1ccc2cc(C#N)c(N3CCN(C(=O)c4ccccc4)CC3)nc2c1,0.5%,·,?,?
CCOc1cc2c(C#N)c(N3CCOCC3)nc(N)c2c(N)n1,-35.2%,11.3,-0.2%,-24.3%
CCOC(=O)CC(=O)CSc1nc(C)cc(C)c1C#N,-1.0%,7.9,?,-9.0%

# Next part
SMILES,miR-21 FLuc,GLA inh pH 4.5,Rango complex inh,Rango release inh
Cc1cc(C)c(S(=O)(=O)c2ccccc2)c(OC(=O)c2c(Cl)cc(Cl)cc2Cl)n1,1.0%,-5.0,0.7%,-4.9%
CCN(CC)C(=O)C1CCCN(Cc2ccc(OC)c(C)c2C)C1 (stereo unspecified),-3.5%,5.2,-2.5%,8.1%
CN(Cc1nc(-c2ccncc2)no1)S(=O)(=O)c1ccc(Br)cc1,7.8%,2.4,0.7%,1.9%
CCN(CC)C(=O)Oc1ccc(OC(=O)N(CC)CC)cc1,-28.5%,6.1,1.8%,2.1%
Cc1ccc(-n2ncc3c(=O)n(CC(=O)NCC4CCCO4)cnc32)cc1 (stereo unspecified),-6.2%,-6.2,1.0%,-29.4%
C#CCn1c(O)c(N=NC(=O)CNC(=O)c2cccnc2)c2ccccc21,-5.8%,·,2.3%,3.4%
N/C(=N\OC(=O)c1cccc([N+](=O)[O-])c1)c1ccccn1,-11.0%,2.1,-0.8%,-10.4%
O=C(Cc1cccs1)NC1CCCC1,2.8%,2.8,-2.3%,-3.7%
Cc1ccc2nc(-c3cccnc3)c(Nc3ccccc3C)n2c1,7.2%&7.9%,1.0[21.1 µM],0.5%,-9.4%
COc1ccc(C2=NN(C(=O)CCC(=O)O)C(c3ccc([N+](=O)[O-])cc3)C2)cc1 (stereo unspecified),-7.0%,·,10.0%,9.8%
CCn1c(SCC(=O)N2CCCc3ccccc32)nc2c1c(=O)n(C)c(=O)n2C,-9.6%,-1.4,-0.8%,13.7%
CS(=O)(=O)c1ccc(NC(=O)CCN2C(=O)NC3(CCCC3)C2=O)cc1,·,·,3.3%,2.2%
Cc1ccc(C(=O)C(C)OC(=O)Cc2c[nH]c3ccccc23)cc1 (stereo unspecified),·,·,0.2%,1.4%
